Mtb growth – Mycobacterium tuberculosis H37Rv growth inhibition, cell based, confirmatory dose response (AID 1949); most inactive calls were filed without a number and no value below 0 was filed; inhibition, % at 10 µg/mL, or IC50 in µg/mL where a hit was titrated; 100,000 compounds, 1.6% hits; M. tuberculosis H37Rv growth inhibition;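 active = confirmed in a dose series; inconclusive = about 50% or more but not retested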;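 note: bacteria grown 7 days with compound before Alamar blue readout; 0% = untreated bacteria and 100% = reference antibiotic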
* marks the source's active call; other numbers are inactive results; i = inactive; u = inconclusive. A portion of the library; the hit share may differ from the screen's.

SMILES	Mtb growth
COC(=O)c1ccc(N=C2N=C(N)c3ccccc32)cc1	i
Cc1ccc(OCC(=O)Oc2ccc3c(c2)oc(=O)c2ccccc23)cc1	i
Cc1c(Cl)cccc1Nc1nc(N)nc(CSc2ncccn2)n1	i
CCOc1ccc(Oc2ccc(-c3nnc(-c4ccccc4)o3)cc2[N+](=O)[O-])cc1	i
CN(C)c1nc(N)nc(Cn2ccnc2)n1	i
CC1CN(C(=O)c2ccccc2F)C(C)CN1C(=O)c1ccccc1F (stereo not drawn)	i
O=C(NCC1CCCO1)c1cc(-c2ccc(Cl)cc2Cl)nc2ccccc12 (stereo not drawn)	i
Cc1ccccc1-c1nc2sc(-c3ccccc3)cc2c(=O)o1	u
CCOc1ccc(-c2csc(NC(=O)c3cc(OCC)c(OCC)c(OCC)c3)n2)cc1	i
CN1CCN(C(=O)COc2ccc(F)cc2)CC1	i
O=C(Nc1ccc(S(=O)(=O)N2CCCC2)cc1)C(Sc1ccccc1)c1ccccc1 (stereo not drawn)	i
Cc1ccccc1OCC(=O)NS(=O)(=O)c1ccc(Cl)cc1	i
O=C(NC1CCCCC1)c1ccc(S(=O)(=O)N2CCCCC2)cc1	i
O=C1NC(=O)N(c2ccc(Cl)cc2)C(=O)/C1=C/c1cccn1-c1ccccc1	i
CC1(C)CC(=O)C2=C(C1)c1c(ccc3ccccc13)NC2c1cn(Cc2ccc(Cl)c(Cl)c2)nc1-c1ccccc1 (stereo not drawn)	i
COc1cc(OC)cc(C(=O)Nc2ccc(-c3nc4ccc(C)cc4o3)cc2)c1	i
Cc1ccc(NC(=S)NCCc2ccc(Cl)cc2)c(C)c1	12%
COc1ccccc1OCCCSc1nc(-c2ccccc2)cc(=O)[nH]1	i
CCn1c(SCC(=O)Nc2ccc(OC)cc2)nnc1-c1ccccc1C	i
NS(=O)(=O)c1ccc(NC(=O)C2CCCN(S(=O)(=O)c3ccc(Cl)cc3)C2)cc1 (stereo not drawn)	i
O=C(Oc1ccccc1)c1ccccc1OCc1ccc(S(=O)(=O)Cc2ccccc2)cc1	2%
CCC(C)c1ccccc1OCCCN1CCCC1 (stereo not drawn)	i
CCOC(=O)c1ccc(NC(=O)NC(=O)C(F)(F)F)cc1	i
O=C(COc1ccccc1)Nc1ccc(C(=O)c2ccccc2)cc1	8%
COc1cccc(C(=O)N2CCN(C(=O)c3ccccc3F)CC2)c1OC	i

Reprinted from the part before: four entries, followed by the next part.
SMILES	Mtb growth
CCC(C)c1ccccc1OCCCN1CCCC1 (stereo not drawn)	i
CCOC(=O)c1ccc(NC(=O)NC(=O)C(F)(F)F)cc1	i
O=C(COc1ccccc1)Nc1ccc(C(=O)c2ccccc2)cc1	8%
COc1cccc(C(=O)N2CCN(C(=O)c3ccccc3F)CC2)c1OC	i
O=C(NCc1ccco1)c1ccc(COc2cccc3ccccc23)cc1	10%
Cc1cc(OCC(=O)Nc2ccccc2C(C)(C)C)cc(C)c1Br	2%
Cc1ccc(C(=O)N2CCN(C(c3ccccc3)c3ccccc3)CC2)cc1C	10%
CCCSc1nc2ccc(I)cc2c(=O)n1-c1ccc(OC)cc1	i
Cc1csc(NC(=O)Cc2ccc(Cl)cc2)n1	i
O=S(=O)(c1ccccc1)c1ccc(COc2cccc3cccnc23)cc1	1%
Clc1ccc(Cn2ncc3c(Nc4ccc(Cl)cc4)ncnc32)cc1	6%
CCCCOc1ccccc1C1C(C(=O)OC)=CN(Cc2ccccc2)C=C1C(=O)OC	i
O=c1c2c(nc3nc(Cc4ccccc4)[nH]n13)CCC2	i
CCOc1cc(C(=O)N2CCCC2)cc(Br)c1OC	3%
Cc1ccc(C(=O)Nc2sc(C)c(C)c2C(N)=O)cc1I	42%
CCCNC(=S)N1CC2(C)CN(C(=O)C(=O)OC)CC(C)(C1)C2=O	3%
COc1ccccc1OCCn1c(NC(=O)c2ccccc2)nc2ccccc21	i
Cc1ccc(C(=O)Nc2cc([N+](=O)[O-])ccc2C)o1	i
Cc1nnc(SCC(=O)Nc2cc(Cl)cc(Cl)c2)n1N	i
Cc1nn2c(-c3ccc(NC(=O)c4cccc(Br)c4)cc3)nnc2c2ccccc12	i
Cc1ccc(NC2CC(=O)N(Cc3ccccc3)C2=O)cc1 (stereo not drawn)	i
COC(=O)c1cc(NC(=O)Nc2cccc(Cl)c2)cc(C(=O)OC)c1	0.18µg/mL*
COCC(C)NC(=O)c1ccc2c(c1)OCO2 (stereo not drawn)	i
CC(C)Oc1ccc(C(CC(=O)N2CCOCC2)Cc2ccccc2)cc1 (stereo not drawn)	i
COc1cc(S(=O)(=O)NCCc2ccccc2)c(OC)cc1Br	i
CCN(CC)C(=O)CSc1nc(O)c(Cc2ccccc2)c(=O)n1-c1ccc(OC)cc1	i
O=C1c2ccc3c4c(ccc(c24)C(=O)N1Cc1cccnc1)C(=O)N(Cc1cccnc1)C3=O	i
Cc1ccc2cccc(OCCOc3ccccc3OC(C)C)c2n1	40%
COc1ccc(Br)cc1C(=O)NC(=S)Nc1ccc(C(=O)O)cc1	i
Going on with the list:
SMILES	Mtb growth
CC(=O)c1ccc(OC(=O)Cc2cccc3ccccc23)cc1	i
C=CCn1c(SCC(=O)Nc2ccc(C(=O)O)cc2)nnc1-c1ccccc1C	i
CCc1nccn1S(=O)(=O)c1ccc(OC)c(OC)c1	1%
Cc1c(Cl)cccc1NC(=O)CSc1nnnn1-c1ccccc1	i
Cc1c(NC(=O)CCN2C(=O)C3C4CCC(C4)C3C2=O)ccc(Br)c1Cl (stereo not drawn)	6%
O=C(COc1ccc(-c2cnc3ccccc3n2)cc1)c1cccs1	1%
O=C(NCc1nc2ccccc2n1Cc1ccccc1)c1ccccc1	i
CCn1c(CNC(=O)c2ccc(OC)c(OC)c2)nnc1SCC(=O)Nc1cccc(C(=O)OC(C)C)c1	i
Cc1cc(C)cc(NS(=O)(=O)c2ccc(NC(=S)NC(=O)c3cccs3)cc2)c1	u
O=C(COc1ccc(Cl)cc1Br)Nc1cccnc1	i
CCN(CC)C(=O)c1sc(NC(=S)Nc2ccc(Br)cn2)c(C(=O)OC)c1C	i
CCc1cccc(C)c1NC(=O)c1cc(OC)c(OC)c(OC)c1Br	i
O=C(Nc1ccc2oc(-c3cccc(F)c3)nc2c1)c1ccc(Br)o1	i
COC(=O)c1ccc(NC(=O)C2Cc3ccccc3CN2S(=O)(=O)c2ccc(F)cc2)cc1 (stereo not drawn)	i
Cc1ccc2nc(N/C(N)=N/C(=S)Nc3ccccc3)nc(C)c2c1	23%
CCc1cc(C(=O)OC)c(NC(=S)Nc2ccc(OC)cc2[N+](=O)[O-])s1	i
Cc1ccc(SCCC(=O)Nc2ccc(F)c(F)c2)cc1	3%
COC(=O)c1ccccc1NC(=O)CN(c1ccc(F)c(Cl)c1)S(C)(=O)=O	i
COc1cc(NC(=O)c2cccc(-c3cc4ccccc4oc3=O)c2)c(OC)cc1Cl	i
Cc1cc(NC(=O)CCc2ccccc2)no1	i
C=C(C)COc1ccc2c(oc(=O)c3cc(OC)ccc32)c1C	i
O=C(Nc1ccc(Cl)cc1)c1ccc(N2C(=O)CCC2=O)cc1	3%
CCOC(=O)c1c(-c2ccccc2)csc1NC(=O)CCCN1C(=O)c2ccccc2C1=O	i
Cc1cc(OCC(=O)Nc2ccc(S(=O)(=O)N3CCCCCC3)cc2)ccc1Br	2%
CSc1cccc(NC(=O)CCSc2ccc(C)cc2)c1	i
Other compounds:
SMILES	Mtb growth
CC(C)OC(=O)COc1cc(O)c2c(=O)cc(-c3ccccc3)oc2c1	20µg/mL*
N#Cc1ccc(C(=O)N2CCN(c3ccccc3)CC2)c(F)c1	4%
CCOc1cc(C=O)cc(Br)c1OCc1cccc(C(=O)O)c1	i
OCCOc1ccc(Cl)cc1CO	i
CCOc1ccc(C(=O)Nc2ccc(OC)cc2OC)cc1Cl	i
O=C(CN1CCOCC1)Nc1ncccn1	i
COc1cccc(C(=O)N2CCN(C(=O)c3cccc(F)c3)CC2)c1	i
CCOc1cc(N2CCOCC2)c(OCC)cc1NC(=O)COc1ccc2c(C)c(CC(=O)OC)c(=O)oc2c1	i
COc1cc(C2C3=C(CCCC3=O)NC3=C2C(=O)CCC3)cc(Br)c1OCC(=O)Nc1cccc(C)c1	2%
Cn1c2ccccc2c2nnc(SCCCC(=O)c3ccc4c(c3)OCCO4)nc21	8%
O=C(O)c1ccccc1NC(=O)C1CCCCC1	2%
Cc1cc(Br)cc(C)c1OCC(=O)NC1CCCC1	5%
COC(=O)c1cc(-c2c[nH]c3ccccc23)n[nH]1	i
Cc1cccc(C(=O)N2C(C)CCCC2C)c1 (stereo not drawn)	1%
CCOc1ccccc1N1CCN(C(=O)c2cc(Cl)ccc2OC)CC1	i
CN(C)C(=O)c1ccc(NC(=O)c2ccccc2Sc2ccccc2C#N)cc1	i
CCOC(=O)c1cnn(-c2ccccc2)c1NC(=O)Cc1ccc(F)cc1	i
CC(C)(C)NS(=O)(=O)c1ccc(NS(=O)(=O)c2cc(Cl)ccc2Cl)cc1	i
CCC(C)NCCCCOc1ccc(C)cc1Br (stereo not drawn)	i
Cc1ccc(C(=O)NCc2ccc(Cl)c(Cl)c2)cc1[N+](=O)[O-]	i
CCSc1nnc2c3ccccc3n(CC)c2n1	2%
CCCNC(=O)C1CC(=O)N(c2ccc(OCC(=O)Nc3cccc(Cl)c3C)cc2)C1 (stereo not drawn)	i
COc1ccc(-c2noc(-c3ccc(Cl)cc3)n2)cc1	i
Cc1cccc2c(C(=O)N3CCOCC3)cc(-c3ccccc3)nc12	i
CC(=O)c1ccc(OCC(O)Cn2nnc3ccccc32)cc1 (stereo not drawn)	i

A draw from above in order of SMILES length, low to high.
SMILES	Mtb growth
Cc1cccc(C(=O)N2C(C)CCCC2C)c1 (stereo not drawn)	1%
Cc1cc(Br)cc(C)c1OCC(=O)NC1CCCC1	5%
CCOc1ccc(C(=O)Nc2ccc(OC)cc2OC)cc1Cl	i
N#Cc1ccc(C(=O)N2CCN(c3ccccc3)CC2)c(F)c1	4%
COc1cccc(C(=O)N2CCN(C(=O)c3cccc(F)c3)CC2)c1	i
CC(C)OC(=O)COc1cc(O)c2c(=O)cc(-c3ccccc3)oc2c1	20µg/mL*
COc1cc(C2C3=C(CCCC3=O)NC3=C2C(=O)CCC3)cc(Br)c1OCC(=O)Nc1cccc(C)c1	2%

A different layout for some results above.
SMILES: CCC(C)NCCCCOc1ccc(C)cc1Br (stereo not drawn)
  Mtb growth: i
SMILES: Cc1ccc(C(=O)NCc2ccc(Cl)c(Cl)c2)cc1[N+](=O)[O-]
  Mtb growth: i
SMILES: CCSc1nnc2c3ccccc3n(CC)c2n1
  Mtb growth: 2%
SMILES: CCCNC(=O)C1CC(=O)N(c2ccc(OCC(=O)Nc3cccc(Cl)c3C)cc2)C1 (stereo not drawn)
  Mtb growth: i

Later entries.
SMILES	Mtb growth
CN1C(=O)c2ccc(C(=O)Nc3nccs3)cc2C1=O	i
COC(=O)c1ccccc1NC(=O)NNC(=O)OC(C)(C)C	i
O=C(CCc1ccccc1)Oc1ccc(-c2ccccc2)cc1	4%
CN1CCN(S(=O)(=O)c2cccc(F)c2)CC1	4%
CN1CCN(Cc2nc(N)nc(Nc3ccccc3)n2)CC1	i
COc1ccc(OC)c(N2CC(O)=C(c3nc4ccccc4s3)C2=N)c1	21%
COc1ccccc1C(=O)Nc1nc(-c2ccc(S(=O)(=O)N3CCCCCC3)cc2)cs1	i
Cc1cccc(C)c1OCC(=O)N1CC2(C)CC1CC(C)(C)C2 (stereo not drawn)	3%
COc1cc(C2C3=C(CC(C)(C)CC3=O)Nc3ccc4ccccc4c32)cc(OC)c1OC(C)=O (stereo not drawn)	5%
CC1CCCCN1Cc1c(O)ccc2c(=O)c(-c3ccccc3)coc12 (stereo not drawn)	i
O=C(CSc1nnc(Cc2cccc3ccccc23)n1-c1ccccc1)Nc1ccc(F)cc1	8%
CC(=O)c1cccc(NC(=O)c2ccc(F)cc2)c1	i
O=C(CSc1nccc(=O)[nH]1)N1CCc2ccccc21	i
O=C(NCc1ccccc1)c1cccc([N+](=O)[O-])c1	i
CCOC(=O)c1cc(NC(=O)N2CCOCC2)c(C)nc1C	i
COc1ccc(C(=O)Oc2ccc(C=C3C(=O)NC(=S)NC3=O)cc2)cc1	i
Cc1ccc(S(=O)(=O)/C(C#N)=C/c2sccc2C)cc1	i
COc1ccc(C(C)NC(=O)Cc2cccs2)cc1OC (stereo not drawn)	i
CC(C)Oc1ccc(CC2CC(=O)N(c3ccccc3)C2=O)cc1 (stereo not drawn)	i
CCN(C(C)=O)c1nnc(-c2ccncc2)s1	i
C=CCn1c(=O)n(Cc2ccco2)c(=O)c2c3c(sc21)CCCC3	i
O=C(CN1C(=O)COc2ccc(Cl)cc21)Nc1ccc(F)c(F)c1F	i
CCC(=O)NC(=S)Nc1ccc(NC(=O)c2ccc([N+](=O)[O-])cc2)cc1	21%
Cc1ccc(S(=O)(=O)NC(C)C(=O)NCc2ccco2)cc1 (stereo not drawn)	i
O=C(NCCCc1ccccc1)c1ccc(C(=O)NCCCc2ccccc2)nc1	i
Next compounds follow.
SMILES	Mtb growth
Cc1ccc(NC(=O)CCCOc2ccc(Cl)cc2Cl)cc1[N+](=O)[O-]	i
COC(=O)c1cc(NC(=S)NC(=O)c2cc(Br)ccc2OC)cc(C(=O)OC)c1	i
CC(=O)N1CCC(=O)N1c1ccccc1	i
CCOc1ccc(C2CC(=O)n3nc(-c4ccc(C)cc4)nc3S2)cc1 (stereo not drawn)	i
COc1ccc(S(=O)(=O)N2CCN(c3ccc(F)cc3)CC2)cc1OC	i
O=C(COc1ccccc1)N1CCN(C2CCN(Cc3ccccc3)CC2)CC1	i
Nc1nc(-c2cccnc2)nn1C(=O)CCc1ccccc1	i
CN(c1ccccc1)S(=O)(=O)c1ccc(NC(=O)c2sc3ccccc3c2Cl)cc1	i
O=C(COc1ccc(Br)cc1)Nc1cc(Cl)ccc1O	25%
Cc1cccc(NS(=O)(=O)c2ccc(NC(=O)c3ccccc3I)cc2)c1	5%
CC(Sc1nc2ccccc2c(=O)[nH]1)C(=O)Nc1cccc(Cl)c1 (stereo not drawn)	i

Source: PubChem BioAssay
